B2AR ag: human beta-2 adrenergic receptor agonism by FAP | Am2.2-beta2AR cells, FAP receptor internalization, flow cytometry; reference of the scale not given here | hit rate 0.43% among 340,000 | response, % (no concentration beside the values) | AID 504454 | P07550;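 active = response above a set limit, near 3 SD of response in nonfluorescent compounds, cut at about 42% in these data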;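 note: stock transfer was 100 nL into about 11 µL; a reference agonist was the positive control; negative values mostly stem from fluorescent compounds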
ALR H2O2 inh: blocks human ALR sulfhydryl oxidase activity | P55789 | purified ALR, DTT oxidation, H2O2 HRP-luminol luminescence | inhibition, % (no concentration beside the values) | hit rate 3.8% among 290,000 | AID 485317;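 active = mean and each replicate at 75% or more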;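 note: stock transfer was 7.5 nL into about 7.5 µL; 0% = neutral wells and 100% = wells with inactivated enzyme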
Target sequence (P55789 whole entry, looked up): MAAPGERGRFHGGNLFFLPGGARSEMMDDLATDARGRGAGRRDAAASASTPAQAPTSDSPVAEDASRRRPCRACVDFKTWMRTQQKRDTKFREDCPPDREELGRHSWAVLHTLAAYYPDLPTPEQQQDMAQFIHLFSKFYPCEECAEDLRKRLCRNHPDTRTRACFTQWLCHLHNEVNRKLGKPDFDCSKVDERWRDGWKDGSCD
HNF4A DNA FP: change in binding of human HNF4 alpha to DNA. HNF4a-FITC DNA binding, fluorescence polarization, 1 h. activity change, % at 10 µM. hit rate 0.3% among 360,000. AID 1224865; in the data active = activity change above about 30%, passing the limit was not always enough;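 note: controls were the assay level and a saturating level of protein; the project sought stronger binding though the title names inhibitors; some compounds called inactive have numbers as strong as hits; positive values seem to mean higher polarization but the record does not say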
Ecoli rRNA inh: inhibitors of bacterial rRNA selective over humanized ribosomes | E. coli WT GFP vs humanized-ribosome RFP mutants, fluorescence, 24 h; active compounds read low; DMSO median 0, no signal -100 | GFP signal change (wild-type ribosome), % (test concentration not listed) | hit rate 1.6% among 350,000;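 active = significant combined selectivity score with lowered wild-type GFP, culture density cut under 30%, mutant RFP and density less affected; inactive = any of these conditions unmet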; note: one replicate is shown; some compounds called inactive have numbers as strong as hits
FGF22 binding: shifts melting point of recombinant human FGF22 | calls only at 9.99 µM | hit rate 1.5% among 340,000 | recombinant FGF22 thermal shift, SYPRO orange fluorescence; percent of sucrose octasulfate shift, DMSO zero;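 active = melting point raised past a set limit in the mean and every replicate; three in four hits are not shown here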
Target sequence (Q9HCT0 whole entry, looked up): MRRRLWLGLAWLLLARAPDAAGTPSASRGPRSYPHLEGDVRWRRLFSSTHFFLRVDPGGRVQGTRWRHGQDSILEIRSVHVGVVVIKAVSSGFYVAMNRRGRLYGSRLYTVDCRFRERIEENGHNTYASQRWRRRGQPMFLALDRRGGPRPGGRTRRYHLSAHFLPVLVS
Ecoli growth: blocks Escherichia coli growth | OD600, 23 h; active compounds read low | hit rate 0.21% among 330,000 | AID 1053175 | OD600 absorbance (test concentration not listed);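 active = OD600 absorbance below the run mean of sample wells minus 3.6 SD, in any replicate, cut at about 0.56 in these data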;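 note: stock transfer was 300 nL into about 60 µL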
UCH37 DUB inh: blocks the human deubiquitinase UCH37; Q9Y5K5; purified proteasome/UCH37, Ub-AMC cleavage fluorescence; inhibition, % (test concentration not listed); hit rate 0.33% among 330,000; AID 588478;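 active = mean of two replicates above 20%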;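 note: 0% = compound-free wells with enzyme and 100% = wells lacking proteasome; stock transfer was 100 nL into about 20 µL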
Target sequence (Q9Y5K5 whole entry, looked up): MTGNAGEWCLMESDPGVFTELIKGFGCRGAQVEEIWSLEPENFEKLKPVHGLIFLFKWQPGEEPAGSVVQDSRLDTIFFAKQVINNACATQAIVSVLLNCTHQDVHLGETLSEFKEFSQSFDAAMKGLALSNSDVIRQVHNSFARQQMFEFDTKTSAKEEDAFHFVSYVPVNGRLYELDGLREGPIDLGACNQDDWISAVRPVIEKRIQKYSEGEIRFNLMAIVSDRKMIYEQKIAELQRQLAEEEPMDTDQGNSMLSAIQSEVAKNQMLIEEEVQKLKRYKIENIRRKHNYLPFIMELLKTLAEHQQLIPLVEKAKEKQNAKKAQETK
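system = Proteasome-associated human UCH37 deubiquitinase | amount = 0.15 nM proteasome as dispensed | medium = pH 7.4 Tris-HCl (50 mM) with ovalbumin, ATP-MgCl2, DTT | incubation = 30 min preincubation with enzyme, 25 min cleavage at room temperature | detection = AMC fluorescence 355/460 nm | read-out basis = percent inhibition | controls = no-proteasome and no-compound wells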
Ecoli rRNA inh OD600: second read-out of Ecoli rRNA inh, no call of its own (marks repeat the call); OD600 change, %; measured here: OD600 growth;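 optical density of the mix in the first replicate; 0 = DMSO median and -100 = no signal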
Ecoli rRNA inh RFP: also measured in Ecoli rRNA inh; calls as there; RFP signal change, %; measured here: RFP humanized mutant strains;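 first replicate; 0 = DMSO median and -100 = no signal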
Starred values were filed as active, the others as inactive.

O=C(NCc1ccco1)c1ccccc1-c1ccc(C(F)(F)F)cc1 was read as B2AR ag -6, ALR H2O2 inh 2, HNF4A DNA FP -0.8, Ecoli growth 0.75 and UCH37 DUB inh 3.3.
Screening COC(=O)c1nnn(-c2ccccc2)c1N returned B2AR ag 0, ALR H2O2 inh 0, HNF4A DNA FP -7.0, Ecoli growth 0.67 and UCH37 DUB inh 4.4.
C/C=C/c1ccc(OCC(=O)Nc2ccc(OC)c(OC)c2)c(OC)c1 was read as B2AR ag -5, HNF4A DNA FP -1.4, Ecoli rRNA inh 3, FGF22 binding inactive, Ecoli growth 0.7, UCH37 DUB inh 3.5, Ecoli rRNA inh OD600 1 and Ecoli rRNA inh RFP 3.0.
Screening CCCCNC(=O)CNC(=S)N(Cc1ccccc1)Cc1cccs1 returned B2AR ag -1, ALR H2O2 inh -5, HNF4A DNA FP 1.8, Ecoli rRNA inh -29, FGF22 binding inactive, Ecoli growth 0.72, UCH37 DUB inh 2.9, Ecoli rRNA inh OD600 -30 and Ecoli rRNA inh RFP -3.0.
`COCCn1c(=S)[nH]c2cc(C(=O)NC(C)C)ccc2c1=O` gave B2AR ag -14, ALR H2O2 inh -16, HNF4A DNA FP 1.2, Ecoli growth 0.68 and UCH37 DUB inh 3.9.
CC(=O)Nc1ccc(-c2csc(NC(=O)C3=COCCO3)n2)cc1 was read as B2AR ag -2, ALR H2O2 inh 16, HNF4A DNA FP 0.8, Ecoli rRNA inh -10, FGF22 binding inactive, Ecoli growth 0.7, UCH37 DUB inh -0.2, Ecoli rRNA inh OD600 -7 and Ecoli rRNA inh RFP -4.0.
`COc1cccc2c3cccc(OC)c3c3[nH]cnc3c12` gave B2AR ag 13, HNF4A DNA FP -5.8 and FGF22 binding inactive.
Screening CCC(=O)Nc1nc(=S)ss1 returned B2AR ag 2, ALR H2O2 inh 10, HNF4A DNA FP 3.6, Ecoli growth 0.71 and UCH37 DUB inh 6.9.
For COC(=O)Cc1c(C)nc2nc(NCc3ccccc3OC)[nH]n2c1=O the results were B2AR ag 7, ALR H2O2 inh 0, HNF4A DNA FP 5.4, Ecoli growth 0.67 and UCH37 DUB inh 5.1.
CCN(CC)c1ccc2nc3ccc(N)cc3[n+](-c3ccccc3)c2c1 was read as B2AR ag 16, HNF4A DNA FP -28, Ecoli rRNA inh 0, FGF22 binding inactive, Ecoli rRNA inh OD600 4 and Ecoli rRNA inh RFP -2.1.
Screening CC(=O)Nc1cccc(-c2cc(NC(C)=O)c3ncc(-c4ccccc4)n3c2)c1 returned HNF4A DNA FP 1.7, Ecoli rRNA inh -6, FGF22 binding inactive, Ecoli rRNA inh OD600 -7 and Ecoli rRNA inh RFP -0.4.
`O=C(NC(=S)Nc1ccc(Cl)cn1)c1cccs1` gave B2AR ag -3, ALR H2O2 inh -4, HNF4A DNA FP -0.2, Ecoli growth 0.69 and UCH37 DUB inh 3.8.

Brought forward from above: 2 compounds, then new ones.
Screening CC(=O)Nc1cccc(-c2cc(NC(C)=O)c3ncc(-c4ccccc4)n3c2)c1 returned HNF4A DNA FP 1.7, Ecoli rRNA inh -6, FGF22 binding inactive, Ecoli rRNA inh OD600 -7 and Ecoli rRNA inh RFP -0.4.
`O=C(NC(=S)Nc1ccc(Cl)cn1)c1cccs1` gave B2AR ag -3, ALR H2O2 inh -4, HNF4A DNA FP -0.2, Ecoli growth 0.69 and UCH37 DUB inh 3.8.
Screening CCCSC1=C(C#N)C(c2cccs2)CC(=O)N1 (stereo not drawn) returned B2AR ag -1, ALR H2O2 inh -5, HNF4A DNA FP 2.8, Ecoli rRNA inh -13, FGF22 binding inactive, Ecoli growth 0.6, UCH37 DUB inh 4.5, Ecoli rRNA inh OD600 -4 and Ecoli rRNA inh RFP 5.2.
For COc1cc(/C=N/Nc2nn3cnnc3c3ccccc23)ccc1O the results were B2AR ag -1, ALR H2O2 inh 4 and HNF4A DNA FP -3.2.
CCOC(=O)CNC(=O)C12CC3CC(C1)CC(c1ccc(C)cc1)(C3)C2 was read as B2AR ag 5, HNF4A DNA FP -4.9, Ecoli rRNA inh -52, FGF22 binding inactive, Ecoli growth 0.6, UCH37 DUB inh -0.4, Ecoli rRNA inh OD600 -74 and Ecoli rRNA inh RFP -14.
For N#Cc1nc(N2CCOCC2)nc(N2CCOCC2)n1 the results were B2AR ag 10, ALR H2O2 inh -4, HNF4A DNA FP 0.2, Ecoli growth 0.67 and UCH37 DUB inh 4.6.
O=C(CCC(=O)OCc1ccc([N+](=O)[O-])cc1Cl)Nc1ccccc1 was read as B2AR ag 9, ALR H2O2 inh -3, HNF4A DNA FP 2.4, Ecoli rRNA inh 4, FGF22 binding inactive, Ecoli growth 0.67, UCH37 DUB inh 3.8, Ecoli rRNA inh OD600 12 and Ecoli rRNA inh RFP -2.0.
Screening CN(C)CCCNc1nc2sc3c(c2c(=O)n1CCc1ccccc1)CCCCC3 returned B2AR ag 7, ALR H2O2 inh 13, HNF4A DNA FP 2.9, FGF22 binding inactive, Ecoli growth 0.6 and UCH37 DUB inh 2.6.
`CCOC(=O)CC(NC(=O)Cn1nnc(-c2ccccc2F)n1)c1ccc(OC)cc1` (stereo not drawn) gave B2AR ag 0, ALR H2O2 inh -4, HNF4A DNA FP 4.2, Ecoli rRNA inh 5, FGF22 binding inactive, Ecoli growth 0.74, UCH37 DUB inh -1.7, Ecoli rRNA inh OD600 5 and Ecoli rRNA inh RFP 0.4.
`Cc1cc(NC(=O)c2cccc(S(=O)(=O)N3CCC(C)CC3)c2)no1` gave B2AR ag -9, ALR H2O2 inh 0, HNF4A DNA FP -0.3, Ecoli rRNA inh 7, FGF22 binding inactive, Ecoli growth 0.67, UCH37 DUB inh 2.3, Ecoli rRNA inh OD600 5 and Ecoli rRNA inh RFP -2.5.
`Nc1c(N(CCO)C(=O)/C=C/c2ccco2)c(=O)[nH]c(=O)n1Cc1ccccc1` gave B2AR ag 3, ALR H2O2 inh 4, HNF4A DNA FP 21, Ecoli rRNA inh 37, FGF22 binding inactive, Ecoli growth 0.69, UCH37 DUB inh -0.2, Ecoli rRNA inh OD600 20 and Ecoli rRNA inh RFP 18.
Screening O=C(Oc1ccc(C(=S)N2CCOCC2)cc1)c1ccccc1[N+](=O)[O-] returned B2AR ag 0, ALR H2O2 inh -41, HNF4A DNA FP 0.7, Ecoli rRNA inh -6, FGF22 binding inactive, Ecoli growth 0.69, UCH37 DUB inh 4.9, Ecoli rRNA inh OD600 1 and Ecoli rRNA inh RFP 0.2.
Screening O=C1C2CCCN2C(=O)N1CCCN1CCN(c2cccc(Cl)c2)CC1 (stereo not drawn) returned B2AR ag -10, ALR H2O2 inh 37, HNF4A DNA FP 0.8, Ecoli rRNA inh -1, FGF22 binding inactive, Ecoli growth 0.68, UCH37 DUB inh 2.2, Ecoli rRNA inh OD600 -2 and Ecoli rRNA inh RFP 4.3.
For O=C(CSc1nnc(C2CC2)n1-c1ccccc1)Nc1ccc(N2CCOCC2)cc1 the results were B2AR ag -2, ALR H2O2 inh 98*, HNF4A DNA FP -1.6, Ecoli growth 0.71 and UCH37 DUB inh 0.3.
`CC(=O)N1CCN(C(=O)c2ccc(S(=O)(=O)Nc3ccccc3Cl)cc2)CC1` gave B2AR ag 10, ALR H2O2 inh -12, HNF4A DNA FP -1.0, Ecoli rRNA inh 6, FGF22 binding inactive, Ecoli growth 0.63, UCH37 DUB inh 3.7, Ecoli rRNA inh OD600 3 and Ecoli rRNA inh RFP -2.8.
For O=c1cc(CN(Cc2ccccc2)Cc2ccccc2)c2ccccc2o1 the results were HNF4A DNA FP -7.6, Ecoli rRNA inh 0, FGF22 binding inactive, Ecoli rRNA inh OD600 10 and Ecoli rRNA inh RFP -3.6.
COCC(=O)N/N=C/c1c(C)[nH]n(-c2ccccc2)c1=O was read as B2AR ag -5, ALR H2O2 inh 1, HNF4A DNA FP -0.1, Ecoli rRNA inh -8, FGF22 binding inactive, Ecoli rRNA inh OD600 -12 and Ecoli rRNA inh RFP -3.1.
For CC1(C)CC(NS(=O)(=O)OCC(Cl)(Cl)Cl)c2cc(C#N)ccc2O1 (stereo not drawn) the results were B2AR ag 8, HNF4A DNA FP 0.7, Ecoli rRNA inh 10, FGF22 binding inactive, Ecoli growth 0.71, UCH37 DUB inh 2.4, Ecoli rRNA inh OD600 7 and Ecoli rRNA inh RFP 2.1.
CC1CN=C2C(C(=O)Nc3ccccc3)=C(O)CC(c3ccccc3)N21 (stereo not drawn) was read as B2AR ag -13, HNF4A DNA FP 1.4, Ecoli growth 0.7 and UCH37 DUB inh 3.8.
`COC(=O)c1ccc(NC(=O)C2CC(=O)OC2c2ccccc2)cc1` (stereo not drawn) gave B2AR ag 3, ALR H2O2 inh -2, HNF4A DNA FP 1.8, Ecoli rRNA inh -1, FGF22 binding inactive, Ecoli growth 0.68, UCH37 DUB inh 2.7, Ecoli rRNA inh OD600 -7 and Ecoli rRNA inh RFP 0.5.
Screening O=C(O)CCc1ccc(-c2cccs2)n1-c1ccc(C(=O)O)cc1 returned B2AR ag 0, ALR H2O2 inh 34, HNF4A DNA FP -4.0, Ecoli rRNA inh 8, FGF22 binding inactive, Ecoli rRNA inh OD600 -10 and Ecoli rRNA inh RFP 0.4.
`CC1CCCCC12NC(=O)N(CC(=O)N1CCN(S(=O)(=O)c3cccs3)CC1)C2=O` (stereo not drawn) gave B2AR ag -5, HNF4A DNA FP -0.6, Ecoli rRNA inh 2, FGF22 binding inactive, Ecoli growth 0.67, UCH37 DUB inh 3.2, Ecoli rRNA inh OD600 6 and Ecoli rRNA inh RFP -1.1.
`CC(C)(OC(=O)c1ccc(C(F)(F)F)cc1)c1cc2ccccc2c(=O)o1` gave B2AR ag -7, ALR H2O2 inh 3, HNF4A DNA FP -2.1, Ecoli rRNA inh 0, FGF22 binding inactive, Ecoli growth 0.66, UCH37 DUB inh 2.8, Ecoli rRNA inh OD600 16 and Ecoli rRNA inh RFP 0.8.
Screening CCCCSc1n[nH]c(N)n1 returned B2AR ag -12, ALR H2O2 inh 7, HNF4A DNA FP -1.8, Ecoli rRNA inh 12, FGF22 binding inactive, Ecoli growth 0.72, UCH37 DUB inh 4.3, Ecoli rRNA inh OD600 6 and Ecoli rRNA inh RFP -1.1.
`O=C1NC(Cc2ccccc2)c2nc3ccc(F)cc3c(=O)n2-c2cc(Cl)ccc21` (stereo not drawn) gave ALR H2O2 inh -6, Ecoli rRNA inh 2, FGF22 binding inactive, Ecoli rRNA inh OD600 6 and Ecoli rRNA inh RFP -1.1.
For O=C(CSC1=NCCS1)NCc1ccco1 the results were B2AR ag 1, ALR H2O2 inh 11, HNF4A DNA FP 1.7, Ecoli growth 0.73 and UCH37 DUB inh 3.0.
Screening C(=C\c1ccccc1)/CNn1cnnc1 returned B2AR ag -2, ALR H2O2 inh 0, HNF4A DNA FP 2.5, Ecoli rRNA inh 6, FGF22 binding inactive, Ecoli growth 0.69, UCH37 DUB inh 4.2, Ecoli rRNA inh OD600 3 and Ecoli rRNA inh RFP -2.4.
CCn1cc(/C=N\NC(=O)Cc2ccc(Cl)cc2)cn1 was read as B2AR ag 2, ALR H2O2 inh -1 and HNF4A DNA FP 1.5.
For Cc1ccc(C(=O)CSc2nc(C)cc(=O)[nH]2)cc1 the results were B2AR ag -7, ALR H2O2 inh 98*, HNF4A DNA FP 7.9, Ecoli growth 0.69 and UCH37 DUB inh 6.6.
O=C(NCCCn1ccnc1)c1cc2ccccc2oc1=O was read as B2AR ag -21, ALR H2O2 inh 1 and HNF4A DNA FP 0.9.
`CSc1ncccc1C(=O)OCc1ccccc1Cl` gave B2AR ag 14, ALR H2O2 inh 1, HNF4A DNA FP 1.9, Ecoli rRNA inh 5, FGF22 binding inactive, Ecoli growth 0.64, UCH37 DUB inh -2.7, Ecoli rRNA inh OD600 7 and Ecoli rRNA inh RFP -12.

The list is partial; the hit share may differ from the screen's.
